Screens: PubChem BioAssay, National Center for Advancing Translational Sciences (NCATS)
TRPML1 agonist = qHTS for Agonists of the Human Mucolipin Transient Receptor Potential 1 (TRPML1); Mucolipin-1 (Homo sapiens), Q9GZU1; TRPML1-expressing cells, Ca2+ dye fluorescence, FDSS; host cell line not named in the record; reference of the full effect not given here; activation, % (concentration not given with the values); actives 0.12% (n = 410,000); in the data active = activation above about 50%; inconclusive = about 30% to 50%; inactive = below about 30%; note: 0% is about no effect; the text of the record puts the active cut at 80%
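Tet-induced TRPML1-DL cells, 1,500 per well, cultured overnight, were loaded with a no-wash Ca2+ dye for 45–90 min. Calcium fluorescence was recorded on the FDSS for 110 s after compound addition, before the EC80 agonist (4 uM 54-4) was added.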
D2 potentiator = Beta-Arrestin HTS for Positive Allosteric Modulators of the Human D2 Dopamine Receptor: Potentiators; D(2) dopamine receptor (Homo sapiens), P14416; DiscoveRx D2 beta-arrestin cells, luminescence, 90 min; 100% = 57 uM dopamine signal; potentiation, % (concentration not given with the values); actives 0.23% (n = 360,000); AID 624464, 2012; active = potentiation of 50% or more; inconclusive = 30% to 50%; inactive = 30% or less;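 note: compound concentration not given in the record; tested on top of an EC20 dose of dopamine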
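PathHunter D2 cells, attached overnight at 37 deg C, received compound in DMSO plus dopamine at EC20 (50 nM final) for 90 min at 37 deg C. Beta-arrestin recruitment was read as luminescence after 1 h with detection reagent at ambient temperature.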
PINK1 expr mod = A Quantitative High throughput Screen to Identify Chemical Modulators of PINK1 Expression | PINK1 immunofluorescence, high-content cytometry, 24 h | Potency, µM (highest dose often 76.6 µM), for inactives: at the top dose activation (PINK1 increase), usual class: activators | actives 0.2% (n = 410,000) | AID 624263, 2012; active = well fitted activation curve with a large enough effect; inconclusive = small, poorly fitted or top-dose-only effect; inactive = flat fitted curve, though single readings scatter; cell line not stated here;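 note: potency is the fitted concentration of half-maximal effect; % of control where 0% means no effect; nearly all actives have a fitted effect of over 65% in size; a mitochondrial uncoupler was the plate control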
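Stable cell line, 250 cells/well, 12 h attachment; compounds pinned at 5 concentrations, 24 h; CCCP control. Fixed with nuclear dye, primary antibodies 12 h at 10 degrees C, secondary plus cell stain; laser-scanning cytometer read.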
Six1-Eya2 blk = qHTS Assay for Inhibitors of the Six1/Eya2 Interaction | Homeobox protein SIX1 (Homo sapiens) + Protein phosphatase EYA2 (Homo sapiens), … | AlphaScreen GST-Six1/His-Eya2 binding, biochemical; hits give low values; control for the full effect not named in the record | activity change, % (concentration not given with the values) | actives 0.56% (n = 360,000); in the data active = activity change below about -65%; inconclusive = about -30% to -65%; inactive = above about -30%; note: % is set by controls: 0 for no effect and ±100 for the full control effect
Target sequence (O00167 whole entry, looked up): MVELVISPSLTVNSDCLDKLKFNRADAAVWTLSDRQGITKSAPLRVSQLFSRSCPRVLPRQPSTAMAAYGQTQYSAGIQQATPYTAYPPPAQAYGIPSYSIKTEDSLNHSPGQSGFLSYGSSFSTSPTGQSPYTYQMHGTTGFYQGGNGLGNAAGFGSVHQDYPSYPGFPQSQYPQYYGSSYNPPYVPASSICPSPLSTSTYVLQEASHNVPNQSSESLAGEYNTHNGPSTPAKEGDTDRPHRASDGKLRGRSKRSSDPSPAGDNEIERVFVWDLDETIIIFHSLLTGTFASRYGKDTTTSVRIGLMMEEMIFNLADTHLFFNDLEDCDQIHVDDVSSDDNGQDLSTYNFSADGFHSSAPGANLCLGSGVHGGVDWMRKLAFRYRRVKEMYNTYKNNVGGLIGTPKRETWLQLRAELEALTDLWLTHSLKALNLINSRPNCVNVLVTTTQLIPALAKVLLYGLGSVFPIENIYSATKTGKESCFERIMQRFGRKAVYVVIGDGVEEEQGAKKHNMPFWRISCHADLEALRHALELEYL
Target sequence (Q15475 whole entry, looked up): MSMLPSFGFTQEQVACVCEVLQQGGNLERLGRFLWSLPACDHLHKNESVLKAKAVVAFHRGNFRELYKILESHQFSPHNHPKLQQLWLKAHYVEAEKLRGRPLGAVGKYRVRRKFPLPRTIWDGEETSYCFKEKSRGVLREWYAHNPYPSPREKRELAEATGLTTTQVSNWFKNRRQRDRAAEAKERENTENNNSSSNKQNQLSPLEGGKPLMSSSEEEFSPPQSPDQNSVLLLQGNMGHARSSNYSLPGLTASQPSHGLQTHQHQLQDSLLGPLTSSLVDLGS
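Homogeneous AlphaScreen proximity assay pairing GST-Six1 with His-tagged Eya2 (added as 5X mix: 250 nM and 500 nM) in 50 mM Tris pH 8.0, 300 mM NaCl, 1 mM TCEP. Glutathione donor and nickel acceptor beads; 1 h, 37 °C, dark.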
D2 agonist = Beta-Arrestin HTS for Positive Allosteric Modulators of the Human D2 Dopamine Receptor: Agonists; D(2) dopamine receptor (Homo sapiens), P14416; activation, % (concentration not given with the values); actives 0.084% (n = 360,000); AID 624465, 2012; DiscoveRx PathHunter D2 beta-arrestin, luminescence, 90 min; 100% = 57 uM dopamine signal; in the data active = activation above about 40%; inconclusive = about 15% to 40%; inactive = below about 15%; note: compound concentration not given in the record; the text of the record calls up to 30% inactive
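DiscoveRx PathHunter D2 beta-arrestin cells (2,100/well) attached overnight, then compound-stimulated 90 min at 37 C in HBSS/10 mM HEPES/0.1% Tween-20 buffer; beta-galactosidase complementation read by luminescence after 1 h at ambient temperature. Dopamine 57 uM final (EC100) as control.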
TRPML1 inh = qHTS for Inhibitors of the Human Mucolipin Transient Receptor Potential 1 (TRPML1); activity change, negative = inhibition, % (no concentration beside the values); TRPML1-inducible cells, Ca2+ dye fluorescence, FDSS; hits give low values; inhibition of EC80 agonist-evoked calcium signal; AID 624415, 2012; Mucolipin-1 (Homo sapiens), Q9GZU1; actives 0.02% (n = 390,000); in the data active means activity change below about -50%; inconclusive means about -30% to -50%; inactive means above about -30%;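 note: stimulus is agonist 54-4 at its EC80 concentration; % is set by controls: 0 for no effect and ±100 for the full control effect; compound concentration not given in the record; the text of the record puts the active cut at -80%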
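Tet-induced TRPML1-DL cells loaded with Ca8 no-wash calcium dye were read kinetically on FDSS. Compound addition was followed by EC80 agonist 54-4 (4 uM final); inhibition was read over 110 s.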
* = called active by the depositor; ? = inconclusive; . = not tested or not shown; & = joins results of further samples; [ ] = another dose, or the depositor's remark.

structure	TRPML1 agonist	D2 potentiator	PINK1 expr mod	Six1-Eya2 blk	D2 agonist	TRPML1 inh
CC(=O)N1N=C(c2ccncc2)OC12CCCCC2	1.4	-8	0.7%	5	-2.6	-4
O=C(NCCC(=O)N1CCN(S(=O)(=O)c2ccc(F)cc2)CC1)Nc1ccccc1	1.8	-2	0.7%	-2	-0.9	-17
CC(C)(C)NC(=O)C(c1ccccc1)N(C(=O)CNC(=O)c1cccs1)c1cccnc1 (stereo not given)	0.2	-2	-1.4%	15	-3.2	5
Cc1ccc(NC(=O)C2CCN(c3cnccn3)CC2)cc1	2.9	-13	-1.4%	-4	-4.7	11
COc1cc(O)ccc1C=O	-0.2	-10	-0.7%	3	-5.4	41
COc1cccc(C2C(C#N)=C(N)Oc3c2oc(CO)cc3=O)c1OC (stereo not given)	-0.7	-16	4.3%	1	-0.2	-4
CC1(C(=O)NCc2ccc(C(F)(F)F)cc2)CCN1Cc1ccccc1OC(F)F (stereo not given)	-0.5	1	?	7	5.0	.
Cc1ccc2cc(CN(Cc3ccco3)C(=O)c3cccs3)c(=O)[nH]c2c1	0.0	-11	4.5%	-9	-2.8	4
COc1ccc(/C=C2\CCC(C3CCCC3)C2=O)cc1 (stereo not given)	0.3	-3	5.9%	18	1.5	18
O=C(CS(=O)(=O)Cc1ccccc1)Nc1ccccn1	-0.4	-2	0.5%	5	-1.4	-2
COc1ccc(N(CC(=O)N2CCN(C)CC2)S(=O)(=O)c2ccccc2)cc1	0.3	-25	1.5%	10	0.1	-18
CCOc1ccc(CCNC(=O)CS(=O)Cc2nc(-c3ccccc3C)oc2C)cc1OCC (stereo not given)	0.1	-2	1.0%	0	1.4	-9
O=C(NCCc1nc2ccccc2[nH]1)/C(=C/c1ccco1)NC(=O)c1ccc(Br)o1	2.1	-19	3.0%	-8	-2.2	17
CCc1c(C)nc(SCC(=O)c2ccc(C)c(C)c2)[nH]c1=O	0.3	-5	.	-2	2.2	12
Cc1ccc(CNc2nc(-c3cccnc3)nc3ccccc23)cc1	2.3	-12	?	-29	5.2	1
O=C(C1CCCCN1S(=O)(=O)c1ccccc1[N+](=O)[O-])N1CCOCC1 (stereo not given)	0.6	-3	-0.5%	15	-3.3	12
CCc1ccc(NC(=O)Cn2c(=O)c(CNc3ccccc3)cc3cc(OC)c(OC)cc32)cc1	0.5	.	1.4%	.	.	12
Cc1ccc2oc(-c3cccc(N)c3)nc2c1	-0.3	-6	-1.1%	3	-0.8	5
O=C(NC1CCCC1)c1ncn[nH]1	0.8	-27	0.5%	?	-12	-6
COc1cc(/C=N/NC(=S)NCCN2CCOCC2)cc(OC)c1OC	0.1	1	-1.2%	2	-4.2	53

Look-ups from the results shown:
Value for Cc1ccc(CNc2nc(-c3cccnc3)nc3ccccc23)cc1 under TRPML1 inh: 1
Value for Cc1ccc2oc(-c3cccc(N)c3)nc2c1 under TRPML1 inh: 5

Carrying on:
structure	TRPML1 agonist	D2 potentiator	PINK1 expr mod	Six1-Eya2 blk	D2 agonist	TRPML1 inh
CC(Sc1nncn1C)C(=O)Nc1cc(C(F)(F)F)ccc1N1CCOCC1 (stereo not given)	-0.8	-1	4.2%	1	2.9	5
O=C(c1ccc2c3c(cccc13)CC2)C1CCCN(Cc2cccnc2)C1 (stereo not given)	0.3	1	1.0%	4	-3.1	17
Cn1c(=O)[nH]c2cc(-c3noc(-c4ccc(F)cc4)n3)ccc21	-0.1	.	1.4%	.	.	-26
CCCOC(=O)c1ccc2c(c1)C(=O)N(c1ccccc1)C2=O	2.0	-8	-2.3%[38.3 µM]	1	0.5	3
C(=C\c1ccco1)/C=N/n1cnnc1	0.2	4	-1.5%	-3	-1.9	0
CCc1ccc(CNC(=O)CCc2nnc(Cc3cccc(C(F)(F)F)c3)o2)nc1	0.6	-1	1.4%	-1	-1.8	2
Nc1nnc(SCC(=O)c2ccccc2)s1	-0.6	-6	3.2%	2	-0.4	-13
CCCCCCCCNS(=O)(=O)CCNCc1ccco1	-0.1	-7	8.9%	-2	-1.7	29
O=C(COc1cccc(OC(F)F)c1)Nc1ccc(SC(F)F)cc1	-1.1	-27	0.5%	26	-1.7	65
O=C(CSc1n[nH]c(=O)n1C1CC1)NCc1ccccc1	0.6	1	1.1%	2	-2.7	13
O=C(Nn1c(O)c(C=C2N=c3ccccc3=N2)sc1=S)c1ccccc1	-0.3	-6	3.3%[38.3 µM]	0	-0.2	-16
COc1ccc(C(N)=S)cc1	0.4	-12	-0.7%	3	-6.3	-5
COc1ccccc1C(=O)Nc1cccc(NC(C)=O)c1	1.5	-5	-6.9%[38.3 µM]	-2	-0.8	0
C=CCn1c(SCC(=O)Nc2nnc(C)s2)nnc1C1CC1	0.6	-14	2.1%	9	0.5	-8
O=S(=O)(c1cnc[nH]1)N1CCN(c2ccc(Cl)cc2)CC1	0.1	-1	0.0%	5	-4.3	-8
Cc1ccc(C(O)(C(=O)NNS(=O)(=O)c2ccc(C)cc2)c2ccc(C)cc2)cc1	1.7	-6	1.0%	6	-2.3	-12
CC12CCC(C/C1=N/OC(=O)c1cccc([N+](=O)[O-])c1)C2(C)C (stereo not given)	2.1	-11	0.4%	-13	-2.2	66
COc1ccc(/C=C/C(=O)c2ccc3c(c2)OCO3)c(OC)c1	-1.4	-2	-1.6%	2	-0.6	8
CC(C)(CO)CNC(=O)CCc1nnc(C2(c3ccc(Cl)cc3)CCC2)o1	0.3	-1	2.1%	-3	3.6	16
CC(=O)c1cccc(NC(=O)c2c(-c3ccccc3)c(-c3ccccc3)nn(C)c2=O)c1	2.5	.	-0.7%	.	.	-19
O=C(CSc1nnc(-c2ccccc2)o1)NC1CCS(=O)(=O)C1 (stereo not given)	0.2	-3	3.3%	2	-7.1	-4
CC(C)(C)NC(=O)c1ccc(C(=O)NC(C)(C)C)cc1	-0.2	-1	-0.5%	11	0.6	-7
O=C(O)C1C2CCC(O2)C1C(=O)Nc1cnn(Cc2ccccc2)c1 (stereo not given)	-0.4	-11	8.8%[38.3 µM]	3	-3.1	-3
NS(=O)(=O)c1cccc(C(=O)N2CCCc3ccccc32)c1	-0.5	-15	1.8%	-11	-3.7	5
COCCCNC(=O)c1ccc2c(c1)ncn2-c1ccc(C)cc1C	.	-10	0.2%	2	-4.4	.
O=C(OCCN1CCCCC1)c1cc2ccccc2o1	0.0	-35	-3.1%	0	-1.8	-9
CC(=O)c1cccc(OCc2cc(C(=O)N3C[C@H]4CC[C@H]3C4)no2)c1	1.4	-28	-0.9%	-17	4.3	-1
CC(C)c1ccc(CN(C(=O)c2cc3ccccc3oc2=O)C2CCS(=O)(=O)C2)cc1 (stereo not given)	-0.4&0.9	-5	-1.6%	-1	-2.8	0&18
CC(=O)Nc1cccc(NC(=O)Nc2cccc3ccccc23)c1	0.7	-9	0.7%	-4	1.9	25
COc1cc(/C=N/NC(=O)c2ccncc2)ccc1OCC(=O)Nc1cccc([N+](=O)[O-])c1	1.6	-3	0.3%	2	-3.6	3
FC(F)(F)c1ccc(CN2C[C@@H]3C(c4ccc(Cl)nc4)C4(c5cccnc5)CC3(C4)[C@H]2c2ccccc2)cc1 (stereo not given in full)	0.3	-15	?	-18	-2.2	-12
COc1ccc(CCn2c(O)cc3nn(-c4nc5ccccc5s4)c(=O)c-3c2C)cc1	0.1	1	2.1%	-17	-1.8	23
COc1ccc([C@H]2C[C@@H](n3cc(-c4ccc(F)cc4)nn3)[C@H](O)CN2C(=O)C2CCCCC2)cc1	1.5	-7	5.8%	-21	-0.3	26
O=C(O)CCCn1c(=O)[nH]c2ccccc2c1=O	0.0	-4	2.8%	3	-0.6	-10
COc1ccc(C(=O)Nc2c(O)ccc3ccccc23)cc1	-0.7	24	0.7%	-28	15	-14
CCOC(=O)N1CCC(Nc2c(N3CCN(c4cc(Cl)ccc4C)CC3)c(=O)c2=O)CC1	-0.5	-3	6.2%	-9	-4.1	-6
CCOC(=O)C1=C(C)NC(C)=C(C(=O)OCC)C1c1ccc(OC)c(OC)c1	-0.4	-3	4.3%	-8	-7.4	11
CN(CC(=O)N1CCN(c2ccccn2)CC1)S(=O)(=O)c1cccc2nsnc12	0.7	8	14%	7	0.5	19
CC(O)c1nc2ccccc2n1CC(=O)Nc1ccc2c(c1)OCCO2 (stereo not given)	-0.2	-3	0.8%	-2	0.4	27
O=C(NCc1cccc(F)c1)c1ccc(CN2CC(=O)N3CCCCC3C2=O)cc1 (stereo not given)	-0.9	.	3.5%	.	.	-7

Another view of 3 compounds above:
> CCOC(=O)C1=C(C)NC(C)=C(C(=O)OCC)C1c1ccc(OC)c(OC)c1
  TRPML1 agonist: -0.4; D2 potentiator: -3; PINK1 expr mod: 4.3%; Six1-Eya2 blk: -8; D2 agonist: -7.4; TRPML1 inh: 11

> CN(CC(=O)N1CCN(c2ccccn2)CC1)S(=O)(=O)c1cccc2nsnc12
  TRPML1 agonist: 0.7; D2 potentiator: 8; PINK1 expr mod: 14%; Six1-Eya2 blk: 7; D2 agonist: 0.5; TRPML1 inh: 19

> CC(O)c1nc2ccccc2n1CC(=O)Nc1ccc2c(c1)OCCO2 (stereo not given)
  TRPML1 agonist: -0.2; D2 potentiator: -3; PINK1 expr mod: 0.8%; Six1-Eya2 blk: -2; D2 agonist: 0.4; TRPML1 inh: 27

(more compounds)
structure	TRPML1 agonist	D2 potentiator	PINK1 expr mod	Six1-Eya2 blk	D2 agonist	TRPML1 inh
COc1ccc(C2CC(C(F)(F)F)n3ncc(C(=O)NCc4cccnc4)c3N2)cc1OC (stereo not given)	0.0	1	-1.5%	0	0.3	-17
Cc1n(C)c2cc(Cl)ccc2[n+]1Cc1ccccc1	0.7	-9	0.2%	2	-2.4	32
CCCN1CCN(C(=O)C2CCN(S(=O)(=O)c3ccc4c(c3)NC(=O)C(C)S4)CC2)CC1 (stereo not given)	0.4	4	-0.4%	-1	-1.0	0
CCOc1ccc(C2C3=C(CCCC3=O)Nc3nc(C(F)(F)F)nn32)cc1OC (stereo not given)	-0.7	-1	-0.8%	8	-1.5	9
Clc1ccc(C=Cc2ccccn2)c(Cl)c1	2.2	1	1.6%	8	0.3	28
N#Cc1sc2nc(-c3ccccc3)cc(-c3ccco3)c2c1N	1.2	-6	0.4%	-10	-2.3	-3
COc1ccc(/C=C(/NC(=O)c2cccc([N+](=O)[O-])c2)C(=O)O)cc1	0.2	-3	-0.1%	-3	-1.4	13
COc1ccc(-c2cn(-c3ccccc3)nc2C(=O)O)cc1OC	0.4	-14	2.5%	10	-5.0	6
